# miR-21 reporter – qHTS Assay for Modulators of miRNAs and/orActivators of miR-21. 340,000 tested, under 10 active. Potency, µM (doses to about 38.3 µM), inactives show at the highest dose reporter change, positive = more light. AID 2288, 2010. HeLa miR-21 FLuc reporter, luciferase, 48 h; active = well fitted rising curve with a large enough effect; inconclusive = small, poorly fitted or top-dose-only effect; inactive = no such curve, though single readings can be large or run the other way;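 also: % of control where 0% means no effect; miR-21 action dims this reporter so a rising signal means less miR-21 action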
#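 HeLa cells endogenously expressing miR-21, stably carrying CMV-driven firefly luciferase with a downstream miR-21 binding site, 2000 cells/well. Titrations up to approximately 40 uM, 48 hours; luciferase luminescence read.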
# Rango complex inh – qHTS Assay for Inhibitors of Rango (Ran-regulated importin-beta cargo) - Importin beta complex formation; Importin subunit beta-1 (Homo sapiens), Q14974; Rango CFP/YFP FRET sensor + importin beta, 45 min; Potency, µM (highest dose often 92.2 µM), for the others: top-dose inhibition of complex formation; 0.031% of 340,000 active; AID 540263, 2011; active = rising FRET ratio curve, often small or poorly fitted; inconclusive = mostly compound fluorescence or quenching in the first reads; inactive = flat curves in all reads;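 also: potency is read from the fitted curve at half-maximal effect; 0% = DMSO wells and 100% = buffer wells lacking importin beta; nearly all actives have a fitted effect of over 15% in size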
# Target sequence (Q14974 whole entry, looked up): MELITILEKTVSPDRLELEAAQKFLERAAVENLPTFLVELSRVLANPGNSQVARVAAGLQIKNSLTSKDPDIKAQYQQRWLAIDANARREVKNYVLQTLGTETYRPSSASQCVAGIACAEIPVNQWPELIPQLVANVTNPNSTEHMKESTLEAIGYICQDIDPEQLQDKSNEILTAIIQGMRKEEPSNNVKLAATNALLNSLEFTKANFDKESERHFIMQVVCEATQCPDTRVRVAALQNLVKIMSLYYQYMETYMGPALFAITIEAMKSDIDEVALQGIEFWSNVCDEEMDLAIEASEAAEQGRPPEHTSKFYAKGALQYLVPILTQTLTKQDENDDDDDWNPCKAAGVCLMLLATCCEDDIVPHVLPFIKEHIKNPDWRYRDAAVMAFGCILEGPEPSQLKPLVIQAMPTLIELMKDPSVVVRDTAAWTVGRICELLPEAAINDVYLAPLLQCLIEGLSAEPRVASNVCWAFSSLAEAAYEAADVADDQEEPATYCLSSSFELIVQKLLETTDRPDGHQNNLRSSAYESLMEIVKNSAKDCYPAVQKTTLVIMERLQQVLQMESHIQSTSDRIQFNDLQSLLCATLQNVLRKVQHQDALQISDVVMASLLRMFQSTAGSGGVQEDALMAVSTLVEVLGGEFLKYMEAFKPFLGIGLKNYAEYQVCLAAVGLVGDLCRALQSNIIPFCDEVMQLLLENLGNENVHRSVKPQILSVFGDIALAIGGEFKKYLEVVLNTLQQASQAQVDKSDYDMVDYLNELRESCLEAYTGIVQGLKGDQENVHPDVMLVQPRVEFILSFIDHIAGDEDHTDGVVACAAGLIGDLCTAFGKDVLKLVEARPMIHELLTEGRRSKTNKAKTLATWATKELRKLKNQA
#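 FRET biosensor Rango (snurportin 1 IBB between N-terminal EYFP and C-terminal Cerulean), 50 nM in PBS/1 mM DTT/0.02% Tween-20/0.1% BSA, preincubated 5 min RT with compound; 0.125 microM importin beta added, 45 min RT, CFP/YFP FRET ratio read.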
# Rango release inh – qHTS Assay for Inhibitors of RanGTP induced Rango (Ran-regulated importin-beta cargo) - Importin beta complex dissociation. AID 540253, 2011. Potency, µM (series often up to 46.1 µM), without a hit: top-dose activity change, negative = inhibition. Biochemical FRET Rango-importin beta, RanGTP-induced dissociation. 0.071% of 340,000 active; active means falling FRET ratio curve, often poorly fitted, with flat reads before Ran was added; inconclusive means other falling curves, or compound fluorescence or quenching; inactive means flat or rising ratio curve;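 also: potency is read from the fitted curve at half-maximal effect; % of control where 0% means no effect; nearly all actives have a fitted effect of over 45% in size; -100% = wells without RanGTP and RCC1; the record marks most hits as doubtful in a second field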
#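 Recombinant Rango FRET biosensor (EYFP–snurportin 1 IBB–cerulean CFP10) at 0.1 uM premixed with 0.25 uM importin beta in PBS, 1 mM DTT, 0.02% Tween-20, 0.1% BSA. Compound added 5 min; RanGTP-RCC1 (0.6 uM Ran, 2 mM GTP, 0.2 uM RCC1) then triggers release, read at 45 min.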
# GLA inh pH 4.5 – qHTS Assay for Inhibitors of Human alpha-Galactosidase at pH 4.5; Alpha-galactosidase A (Homo sapiens), P06280; purified enzyme, 4-MU-alpha-Gal fluorescence, pH 4.5; activity change, negative = inhibition, % at 105 µM; 230,000 tested, under 10 active; inconclusive = small, poorly fitted or top-dose-only inhibition, or a rising curve; inactive = flat fitted curve, though single readings scatter; no compound was filed as active;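 also: 0% = full activity with enzyme and -100% = basal without enzyme; dose as in the result columns while the protocol names 77 µM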
# * hit, by the source's call; u = inconclusive; x = no result given; [ ] = remark or other dose.
# Values run as follows: miR-21 reporter, Rango complex inh, Rango release inh, GLA inh pH 4.5
CCCC1=NN2C(=N)/C(=C\c3cc(C)n(-c4cc(C)cc(C)c4)c3C)C(=O)N=C2S1
    1%, u, u, -12
Cc1cc(C)c(C#N)c(SCc2nc3ccccc3c(=O)[nH]2)n1
    -12%, u, u, 8[21.1 µM]
c1ccc(CN(Cc2ccco2)C(c2ccncc2)c2nnnn2C2CCCC2)cc1 (stereo not given)
    0%, u, -12%, 4
CC1=CC(=C(C#N)c2nc3ccccc3s2)C=C(C)N1Cc1ccco1
    -11%, u, u, -4
CCN(C(=O)c1cc2c(=O)[nH]c3ccc(C)cc3c2s1)c1ccccc1C
    -1%, 1.9%, -5%, 5
Nc1ccc2c(c1)C(=Cc1cccnc1)c1ccccc1-2
    x, -0.2%, 0%, x
COc1cc(/C=C2\SC(N)=NC2=O)cc(Cl)c1O
    -1%, u, u, x
O=C(NCC1CCCO1)C(=O)N/N=C/c1cccc(Cl)c1 (stereo not given)
    3%, 1.1%, 6%, x
COC(=O)CNC(=O)COC(=O)c1cc(Cl)cc(Cl)c1N
    -7%, 1.4%, 2%, u
CC1CCN(C(=O)CNC(=O)Cn2ccc3ccccc3c2=O)CC1
    -1%, -0.5%, 2%, 6
COc1ccc(NC(=O)CCOc2ccc(C)cc2)cc1S(=O)(=O)N1CCOCC1
    x, 1.5%, -10%, x
CCn1c(N2CCN(Cc3ccc([N+](=O)[O-])cc3)CC2)nc2ccccc21
    12%, -5.0%, 1%, x
O=C(NCCN1CCN(c2ccccc2F)CC1)C1c2ccccc2C(=O)N2CCc3ccccc3C12 (stereo not given)
    7%, -1.5%, -7%, -1
CC/C(=N\NC(=O)CSCc1ccccc1Cl)c1ccc2c(c1)OCCO2
    -5%, 2.6%, 4%, 0
CCCOc1ccc(CNC(=S)N/N=C/c2ccc([N+](=O)[O-])cc2)cc1
    -6%, 5.0%, -13%, 5
CCN(CC)S(=O)(=O)c1cc(C(=O)Nc2ccccc2C(=O)O)ccc1OC
    -14%, 1.3%, 0%, 14
OC(CNc1ncnc2sccc12)c1ccccc1 (stereo not given)
    -3%, -3.1%, -4%, x
COc1ccc(C2(c3ccc(OC)cc3)NC(=O)N(CC(=O)N(C)c3ccccc3)C2=O)cc1
    -46%, -3.6%, 5%, x
O=C(COc1cccc2cccnc12)Nc1ccccc1N1CCOCC1
    0%, 2.4%, -7%, -2
CC(/C=C/c1ccc2c(c1)OCO2)=N/NC(=O)c1ccc(C)nc1
    -6%, u, 0%, -1
COc1ccc(C(CNC(=O)CNC(=O)c2cccc(Cl)c2)N2CCCC2)cc1 (stereo not given)
    x, 4.7%, -9%, x
CCOC(=O)CCSc1nc(C)cc(C(F)(F)F)c1C#N
    1%, 2.1%, -18%, -23
Cc1nc([N+](=O)[O-])cn1Cc1cccc2ccccc12
    0%, -0.6%, 19%, x
COC1(OC)N=C(NC(=O)Nc2ccccc2)C2(C#N)C(c3ccccc3)C12C#N (stereo not given)
    -2%, -4.9%, 0%, 5
CCCOc1ccc(C(C)=O)cc1CSc1nc(O)cc(=O)[nH]1
    -6%, -1.6%, 0%, -9
COC(=O)CC(NS(=O)(=O)c1cccs1)c1ccccc1Cl (stereo not given)
    -2%, 4.0%, 3%, 2
N#C/C(=C/c1ccc([N+](=O)[O-])cc1)C(N)=O
    1%, -2.1%, 16%, 11
O=C(c1ccc2c(c1)OCO2)N(Cc1cccs1)C1(C(=O)NC2CCCCC2)CCCCC1
    6%, -2.5%, -2%, -10
COc1ccc(/C=N/NC(=O)c2cccc3ccccc23)c(OC)c1OC
    x, -3.7%, -4%, x
COc1cccc(N2CCN(C(=O)CCCCCNc3nc(=S)[nH]c4ccccc34)CC2)c1
    u, 5.1%, -18%, 5
COc1ccc(CCNC(=O)c2ccc(CS(=O)Cc3ccc(C)cc3)o2)cc1OC (stereo not given)
    10%, 1.9%, 2%, x
Cc1ccccc1NC(=O)CSc1nnc(Cc2cccn2C)n1-c1ccc(F)cc1
    -11%, -1.2%, u, -5
Cc1ccc(NC(=O)Nn2cnnc2)cc1Cl
    -11%, -2.3%, 0%, x
COc1ccc(/C=N/Nc2nc(-c3ccc(Cl)cc3)cc(C(F)(F)F)n2)cc1OC
    6%, -0.9%, -1%, -2
COc1cc(NC(=O)C2CC2)c(OC)cc1NC(=O)c1ccco1
    4%, 0.2%, 2%, x
COc1ccccc1NCC(=O)N/N=C/C=C/c1ccccc1
    -24%, -1.4%, -1%, 8
COc1cc(/C=N/Nc2nc(C)cc(=O)[nH]2)cc(OC)c1O
    6%, -3.9%, -15%, x
O=C(CSc1ccccc1)Nc1ccc2sccc2c1
    -52%, -1.0%, -7%, x
O=c1c(-c2ccccc2Cl)coc2c(CN3CCCCC3)c(O)ccc12
    -2%, -3.2%, 13%, x
C=CCn1c(SCC(=O)Nc2ccccc2-c2ccccc2)nc2cc(C(=O)O)ccc2c1=O
    -4%, -0.3%, 1%, -1
COc1ccccc1C(=O)NCCC(=O)Nc1ccc(S(=O)(=O)N2C(C)CCCC2C)cc1 (stereo not given)
    x, -4.1%, 26%, x
COc1ccccc1C(=O)Nc1ccc(Nc2ccccc2)cc1
    x, -1.4%, 0%, x
Cc1ccc(C(=O)NCCCn2ccnc2)cc1C
    x, 3.3%, 7%, x
COc1ccc(-c2nnc(SCC(=O)NC3CCCC3)n2C)cc1
    -4%, -2.0%, -20%, x
O=C(O)/C=C/c1cn(-c2ccccc2)nc1-c1cc2ccccc2o1
    -31%, 3.8%, -2%, -17

# A second format for four compounds above:
COc1ccc(/C=N/Nc2nc(-c3ccc(Cl)cc3)cc(C(F)(F)F)n2)cc1OC
  miR-21 reporter: 6%
  Rango complex inh: -0.9%
  Rango release inh: -1%
  GLA inh pH 4.5: -2

COc1cc(/C=N/Nc2nc(C)cc(=O)[nH]2)cc(OC)c1O
  miR-21 reporter: 6%
  Rango complex inh: -3.9%
  Rango release inh: -15%
  GLA inh pH 4.5: x

Cc1ccc(NC(=O)Nn2cnnc2)cc1Cl
  miR-21 reporter: -11%
  Rango complex inh: -2.3%
  Rango release inh: 0%
  GLA inh pH 4.5: x

Cc1ccccc1NC(=O)CSc1nnc(Cc2cccn2C)n1-c1ccc(F)cc1
  miR-21 reporter: -11%
  Rango complex inh: -1.2%
  Rango release inh: u
  GLA inh pH 4.5: -5

# The listing continues:
# Values run as follows: miR-21 reporter, Rango complex inh, Rango release inh, GLA inh pH 4.5
O=[N+]([O-])c1ccc(Cl)cc1NCCCN1CCOCC1
    -15%, 2.9%, -3%, -2
Cc1csc(=O)n1CCC(=O)OCC(=O)c1c(N)n(C)c(=O)n(C)c1=O
    x, 1.9%, -12%, x
COc1ccc(N2CCN(C(=O)CCC(=O)N3CC(C)Oc4ccc(C)cc43)CC2)cc1 (stereo not given)
    21%, 4.8%, 9%, x
N#C/C(=C(/O)C(Cl)c1ccccc1)c1nc2ccccc2s1 (stereo not given)
    -8%, -4.5%, 7%, -3
Cc1nc(NC(=O)CC(C)C)sc1-c1csc(Nc2ccc(Cl)cc2Cl)n1
    0%, 2.3%, 14%, -5
Cc1nnc(SCC(=O)Nc2ccc(N(C)C)cc2)n(N)c1=O
    -2%, -0.1%, -7%, 3
CCC(C)NC(=O)Cn1c(=O)n(CCCC(=O)NCc2ccccc2Cl)c(=O)c2ccccc21 (stereo not given)
    0%, 0.3%, -1%, 6
O=C(O)c1ccc(-c2noc(-c3ccccc3C(F)(F)F)n2)cc1
    x, 0.4%, 0%, x
O=C(C[n+]1ccccc1)Nc1nc2ccccc2s1
    -13%, 2.5%, 3%, 4
COc1ccc(OCCOC(=O)CNC(=O)c2ccc(Cl)cc2Cl)cc1
    x, 5.0%, -1%, x
O=C(COC(=O)CCCNC(=O)c1ccc(Cl)cc1)NCc1ccccc1Cl
    -3%, -1.1%, 7%, 2
COc1ccc(-c2nsc(C(=O)N(c3ccc(F)cc3)C(C(=O)NC3CCCC3)c3ccc(OC)cc3)c2N)cc1 (stereo not given)
    -3%, 2.2%, -16%, -2
CC(C)(C)c1ccc(COC(=O)CNC(=O)CNC(=O)Cc2ccccc2)cc1
    -1%, -0.8%, -4%, 10
COc1ccccc1NC(=O)CSc1nnnn1-c1ccc(C(=O)O)cc1
    0%, -1.4%, -1%, -1
Cc1cc(N2CCN(C/C=C/c3ccccc3)CC2)n2ncnc2n1
    5%, -0.1%, 0%, -5

# Carrying on.
mol	miR-21 reporter	Rango complex inh	Rango release inh	GLA inh pH 4.5
CC(C)C[C@H](NC(=O)N1c2ccccc2NC(=O)[C@@H]1C(C)C)C(=O)N[C@@H](Cc1ccccc1)C(=O)O	-1%	-1.3%	-11%	x
CC(C)c1nnc(NC(=O)c2cccnc2)s1	-33%	-0.4%	4%	3
Cc1onc(-c2ccccc2)c1C(=O)Nc1nnc(CC(C)C)s1	1%	6.6%	-1%	x
CN1CCN(c2nc(-c3ccc(Cl)cc3)nc3ccccc23)CC1	-1%	0.0%	-9%	x
CC(=O)c1cc(-c2ccccc2)n(CC(=O)NCc2cccs2)c1C	-9%	1.6%	0%	2
CCN1CCN(c2ccc(NC(=O)c3cccnc3)cc2Cl)CC1	-14%	u	0%	1
C[C@H](CO)N1C[C@H](C)[C@@H](CN(C)S(C)(=O)=O)Oc2ccc(NC(=O)NC3CCCCC3)cc2C1=O	x	5.5%	30%	x
CCOC(=O)N1CCC(Nc2c(OCC)c(=O)c2=O)CC1	1%	2.2%	8%	4
COC(=O)c1cc(Cl)c(NS(=O)(=O)c2ccccc2)cc1OC	-10%	0.1%	0%	-4
CC(C)(C)CC(=O)Nc1ccc(Nc2ccccc2)cc1	-36%	-1.9%	15%	2
O=C(Cc1ccc(S(=O)(=O)N2CCOCC2)s1)N1CCN(S(=O)(=O)c2cccc(Cl)c2)CC1	x	-0.7%	0%	x
Cc1ccccc1/C=N/N1CCN(c2ccccc2)CC1	-35%	-7.6%	0%	-6
COC(=O)c1ccc(COc2cc(O)c3c(c2)OC(C)(C)CC3=O)cc1	-15%	4.9%	2%	5
Cc1cc(NS(=O)(=O)c2ccccc2)c([N+](=O)[O-])cc1C	-9%	0.2%	u	6
COc1ccc(-n2cnnc2SCC(=O)Nc2cc(S(=O)(=O)N3CCCCC3)ccc2C)cc1	-5%	6.0%	8%	-4
CCOC(=O)N1CCN(C(=O)c2ccccc2NC(=O)c2ccc(OC)cc2)CC1	-3%	-0.7%	0%	5
CCOC(=O)[C@H]1[C@H]2COc3ccc(Cl)cc3[C@@H]2N2C(=O)[C@@H](CO)NC(=O)[C@@]12C	x	-2.7%	-12%	x
COc1cccc(CN(C)C(=O)c2cccc(S(=O)(=O)N3CCN(c4ccccc4)CC3)c2)c1OC	x	-0.5%	-7%	x
CC(C)(C)c1ccc(N/N=C(\C#N)S(=O)(=O)C(C)(C)C)cc1	23%	-3.8%	-18%	-15
CCc1cccc(CC)c1C(O)c1cccnc1 (stereo not given)	1%	-1.2%	0%	2
O=C(c1ccc(=O)oc1)N1CCCc2ccccc21	-23%	u	-20%	-4
Cc1ccc(NC(=S)Nc2ccc(S(=O)(=O)Nc3ncccn3)cc2)cc1Cl	-3%	x	x	-5
O=C(Nc1cccnc1Cl)c1cc(-c2ccc(Br)cc2)on1	4%	-1.2%	-10%	x
O=C(O)c1cccc(CN2C(=O)S/C(=C/c3cccc([N+](=O)[O-])c3)C2=O)c1	5%	-1.8%	17%	9

# From PubChem BioAssay

# A portion of the library; rates above refer to the full screens.
